# BJeLR lethal: MLPCN primary cell-based screen for lethality selective to Ras in HRASV12 cells. AID 1554, 2009. BJeLR (HRASV12) viability, CellTiter-Glo ATP luminescence, 48 h; reference of the scale not given here. 300,000 tested, 0.17% active. inhibition, % (concentration not given with the values);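 active = replicate mean above 50%; inconclusive = above 50% but judged a plate artefact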;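 also: 50 nL library stock added to about 25 µL; numbers are from one replicate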
# RN4220 kill: growth inhibition of S. aureus RN4220, primary screen, OD600; 16 h; inhibition, % (concentration not given with the values); 330,000 tested, 0.33% active; AID 1259311, 2017;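 active = z-score of -3 or lower and OD600 up to 0.18 on both plates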;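 also: plate controls were untreated cells for no effect and reference antibiotic for full effect; stock transfer was 100 nL into about 80 µL; one replicate is shown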
# Sa ugtP lethal: growth inhibition of ugtP-null S. aureus, primary screen, RN4220 ugtP deletion, OD600; 16 h; some inactives read as strong as hits; growth inhibition, % (test concentration not listed); 330,000 tested, 0.54% active; AID 1259309, 2017;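 active = z-score under -3 and OD600 up to 0.15 on both plates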;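 also: plate controls were untreated wells for no effect and antibiotic for full effect; wells of about 80 µL received 100 nL stock; the first replicate is given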
# PrP 5UTR inh: inhibition of PrP 5' UTR reporter expression | inhibition, % (test concentration not listed) | 340,000 tested, 0.35% active | cell-based PrP 5' UTR mRNA reporter, plate reader;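 active = every replicate at 50% or more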;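 also: 0 = median of the neutral control wells; tested in H4 reporter cells; numbers are from one replicate; inactives centre near -14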
# Bead autofluor: counter-screen for toxin protease inhibitors: compound fluorescence; fluorescence intensity (concentration not given with the values); 360,000 tested, 3.1% active; compound autofluorescence counterscreen, microsphere flow cytometry; stronger effect = higher value;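 active = at least 3 SD above the mean of all compounds, about 16000 in these data; inconclusive = too few beads counted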;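 also: 100 nL of 1 mM stock went into each well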
# Mtb hypoxia rep: PubChem AID 1159583. 300,000 tested, 0.1% active. fluorescence inhibition, % (test concentration not listed). M. tuberculosis hypoxia-regulated fluorescent reporter, fluorescence;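 active = 35 to 45% if threefold the growth effect, above 45% if 1.5-fold the growth effect; inactive = the rest, general growth blockers included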;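 also: wells of about 50 µL received 100 nL stock; 0% = vehicle wells and 100% = reference inhibitor wells; whole bacteria with a GFP reporter of the hypoxia response; strong numbers were not always called active; many hits fall short of the cut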
# Mtb hypoxia rep growth: further read-out of Mtb hypoxia rep, marked with its call; growth inhibition, %; measured here: M. tuberculosis growth (absorbance);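 0% = vehicle and 100% = reference antibiotic; read after six days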
# * hit, by the source's call; u = inconclusive; x = not tested or not shown.
SMILES,BJeLR lethal,RN4220 kill,Sa ugtP lethal,PrP 5UTR inh,Bead autofluor,Mtb hypoxia rep,Mtb hypoxia rep growth
CC1(C(=O)OCC(=O)NC(=O)NCc2ccccc2)CC1(Cl)Cl (configuration not stated),-4,3.5,10,-44,4018,15,15
Cc1ccc(S(=O)(=O)N2CCC(C(=O)N3CCC[C@H]3C(=O)NCc3ccco3)CC2)cc1,-2,-0.9,-5,-14,16928*,-6,6
O=C(CCC(=O)Nc1ccc(F)cc1)NN=Cc1ccc(O)cc1,x,3.2,2,x,x,-3,-11
O=C(CSc1nccc(=O)[nH]1)Nc1ccc(Br)c(Cl)c1,4,5.1,-2,-12,3258,x,x
CCCC(=O)Nc1nnc(Sc2ccc(N(C)C)cc2)s1,-6,-5.3,8,-15,2536,10,7
O=C1C(=O)N(Cc2cccnc2)C(c2cccc(O)c2)/C1=C(\O)c1ccc2c(c1)OCCO2 (configuration not stated),1,2.9,-1,-12,4051,3,-3
Cc1cccc(C)c1OCC(O)CN1CCN(c2ccccc2)CC1 (configuration not stated),4,-0.5,-1,-7,4539,-4,14
CCCn1c(CN2CCN(C(=O)c3ccco3)CC2)nc2cc(S(=O)(=O)N(C)C)ccc21,x,-2.5,-10,-2,4326,-13,0
Cc1cc(C(=O)OCC(=O)Nc2cccnc2Cl)c2ccccc2n1,0,5.5,11,7,4124,14,3
Cc1nc2c(c(=O)n1CCC1=CCCCC1)c1nc3ccccc3nc1n2N=Cc1ccccc1,x,7.4,-26,x,x,10,9
Cc1cc(C)c(S(=O)(=O)N(C)CC(=O)NCc2cccnc2)c(C)c1,13,1.9,6,-7,3663,12,6
Cc1nnsc1C(=O)NN=Cc1ccc2ccccc2c1O,x,-0.8,63,x,x,14,-3

# Shown tab-delimited: 11 of the compounds above
Molecule	BJeLR lethal	RN4220 kill	Sa ugtP lethal	PrP 5UTR inh	Bead autofluor	Mtb hypoxia rep	Mtb hypoxia rep growth
Cc1ccc(S(=O)(=O)N2CCC(C(=O)N3CCC[C@H]3C(=O)NCc3ccco3)CC2)cc1	-2	-0.9	-5	-14	16928*	-6	6
O=C(CCC(=O)Nc1ccc(F)cc1)NN=Cc1ccc(O)cc1	x	3.2	2	x	x	-3	-11
O=C(CSc1nccc(=O)[nH]1)Nc1ccc(Br)c(Cl)c1	4	5.1	-2	-12	3258	x	x
CCCC(=O)Nc1nnc(Sc2ccc(N(C)C)cc2)s1	-6	-5.3	8	-15	2536	10	7
O=C1C(=O)N(Cc2cccnc2)C(c2cccc(O)c2)/C1=C(\O)c1ccc2c(c1)OCCO2 (configuration not stated)	1	2.9	-1	-12	4051	3	-3
Cc1cccc(C)c1OCC(O)CN1CCN(c2ccccc2)CC1 (configuration not stated)	4	-0.5	-1	-7	4539	-4	14
CCCn1c(CN2CCN(C(=O)c3ccco3)CC2)nc2cc(S(=O)(=O)N(C)C)ccc21	x	-2.5	-10	-2	4326	-13	0
Cc1cc(C(=O)OCC(=O)Nc2cccnc2Cl)c2ccccc2n1	0	5.5	11	7	4124	14	3
Cc1nc2c(c(=O)n1CCC1=CCCCC1)c1nc3ccccc3nc1n2N=Cc1ccccc1	x	7.4	-26	x	x	10	9
Cc1cc(C)c(S(=O)(=O)N(C)CC(=O)NCc2cccnc2)c(C)c1	13	1.9	6	-7	3663	12	6
Cc1nnsc1C(=O)NN=Cc1ccc2ccccc2c1O	x	-0.8	63	x	x	14	-3

# (cont.)
SMILES,BJeLR lethal,RN4220 kill,Sa ugtP lethal,PrP 5UTR inh,Bead autofluor,Mtb hypoxia rep,Mtb hypoxia rep growth
N#C/C=C/N1CCN(Cc2ccc3c(c2)OCO3)CC1,-3,1.2,6,-11,3603,15,8
Cc1ccc(CCNC(=O)C2CC(c3cccc(F)c3)=NO2)cc1 (configuration not stated),6,6.2,2,-15,3816,4,0
Cc1ccc(S(=O)(=O)NC(=O)Nc2cc(C)on2)cc1,12,2.0,1,-2,3738,-6,4
O=C(Nc1ccc(S(=O)(=O)NCCc2ccccc2)cc1)c1ccc(Br)o1,5,-0.8,8,-19,u,3,-11
Cc1ccc(S(=O)(=O)NCC(c2ccco2)S(=O)(=O)c2ccccc2)cc1 (configuration not stated),1,-4.2,6,-13,x,0,4
Cc1ccc(N2C(=O)CC(C)(C)CC2=O)cc1Cl,6,4.9,-3,-21,4252,13,6
COc1ccc(NC(=O)CSc2nc3ccc(Nc4nc(N5CCOCC5)nc(N5CCOCC5)n4)cc3s2)cc1,-7,5.9,-3,-18,4579,-19,2
Cc1ccccc1C(=O)NC(=S)Nc1ccccc1[N+](=O)[O-],6,4.4,11,-31,4120,1,16
CCCCCCC(N)CC(=O)O (configuration not stated),4,-0.4,0,5,9632,4,2
CC(Oc1ccc(-c2ccccc2)c(F)c1)c1ccn(S(=O)(=O)c2ccc(Cl)cc2)n1 (configuration not stated),-2,-4.1,4,-13,5006,21,10
CC#CC(=O)N1CCCC(C(=O)c2ccc(SC)cc2)C1 (configuration not stated),-2,4.3,15,13,x,10,-3
CCCc1nc2sc3ccccc3c(=O)c2c(=O)n1Cc1ccc(OC)cc1,-2,2.2,-7,x,3846,-2,14
O=C(Nc1cccc(S(=O)(=O)N2CCOCC2)c1)c1cc2c(s1)CCC2,-10,-5.3,-17,-9,u,-5,8
CC(C)Cc1cc(C(=O)N2CCCC(CO)(Cc3ccc(F)cc3F)C2)n[nH]1 (configuration not stated),-1,2.1,-5,-2,5639,0,-2
COc1ccccc1NC(=O)C(C)OC(=O)CC1CCCC1 (configuration not stated),10,1.8,4,-1,5883,7,16
C/C(=N\NC1=NCCN1)c1ccc(Cl)cc1,-8,x,x,1,4370,x,x
CCCCSc1nnc(CNC(=O)C23CC4CC(CC(C4)C2)C3)n1Cc1ccccc1,-6,2.5,-11,-2,2244,-10,3
CCOc1cccc(CNn2cnnc2)c1OCc1ccccc1Cl,5,-6.1,-9,4,3427,7,-4
O=[N+]([O-])c1cc(S(=O)(=O)N2CCCCCC2)ccc1Cl,x,-7.5,-7,2,3983,1,7
O=C(C1CC1)N1CCN=C1SCc1ccccc1Cl,1,2.0,5,-29,5864,x,x
Cc1cc(NC(=O)CC(C)C)c(=O)n(Cc2cccc(F)c2)c1,7,-0.3,-1,-22,3843,-1,-1
COc1ccc(-n2ccn3c(CCC(=O)N4CCN(c5cccc(C)c5C)CC4)nnc3c2=O)cc1,-1,4.4,13,3,4012,-1,-7
COc1cccc2sc(Nc3nc(-c4cc5ccccc5oc4=O)cs3)nc12,9,-5.9,-22,-30,2579,-7,-3
CCOP(=O)(OCC)C(NC(=O)NC)C(N)=O (configuration not stated),1,12,2,-6,6187,5,10
CSCCC(NC(=O)c1ccc(Cl)cc1Cl)C(=O)OCC(N)=O (configuration not stated),14,4.1,6,-16,x,14,8
O=c1[nH]c2ccccc2nc1/C=C(\O)C(F)F,0,x,x,-14,9549,x,x
CCc1ccc(C=C2SC(=S)N(CC(=O)Nc3nc4ccccc4s3)C2=O)cc1,x,0.3,-16,x,x,6,13
CC(NC(=O)c1nc[nH]c1C(=O)N1CCN(C(=O)OC(C)(C)C)CC1)C(=O)OC(C)(C)C (configuration not stated),x,7.5,8,x,x,10,13
Cc1cc(/C=N/NC(=O)CC#N)c(C)n1-c1ccc([N+](=O)[O-])cc1,0,x,x,-31,3112,x,x
CCCCNC(=O)COC(=O)c1c2c(nc3ccccc13)/C(=C\c1cccs1)CC2,x,8.4,-7,-41,3435,5,11
COc1cccc(N2CCN(C(=S)Nc3ccccc3OC)CC2)c1,9,1.5,8,-22,3273,13,5
Cc1ccc(OCc2nnc(SCC(=O)Nc3ccc(N4CCOCC4)cc3)o2)cc1,5,4.2,2,-8,5582,9,4
COc1ccc(NC(=O)CN(c2ccccc2F)S(=O)(=O)c2ccc(C)cc2)c(OC)c1,6,4.1,4,-45,4343,11,18
O=C(Nc1ccc2c(c1)OCO2)N1CCN(C/C=C/c2ccccc2)CC1,-2,2.5,9,-14,17067*,1,-6
COc1ccc(-c2cc(C(=O)NN)[nH]n2)cc1,-2,-4.4,-3,-14,1961,-1,10
COc1ccc(NC(=O)CSc2ccc3nnc(-c4ccccn4)n3n2)cc1,-2,1.8,2,-4,5871,5,6
Nc1ccc2c(c1)C(=O)c1ccc(N)cc1-2,x,-2.2,-5,-30,3616,16,13
C=CCOc1ccc(/C=C2\SC(N3CCCCC3)=NC2=O)cc1,-1,9.2,-10,-19,3859,-3,7
CC(=O)C1=C(Nc2ccc(C)cc2)CC(C)(O)C(C(C)=O)C1c1ccco1 (configuration not stated),-8,-2.7,0,-25,4548,8,0
O=C(O)CC(c1cccc(Cl)c1)n1cccc1 (configuration not stated),5,-3.3,0,-3,3612,-3,1
O=[N+]([O-])c1ncn(Cc2ccccc2Cl)n1,-5,-7.4,14,-7,2391,5,10
O=S(=O)(NCc1ccccc1)C1CC2C=CC1C2 (configuration not stated),x,-0.6,-3,x,x,10,14
COc1cc2c(cc1OC)CN(C(=S)Nc1ccc(Cl)cc1)CC2,-2,4.7,-2,-3,4324,5,1
Cc1nc(C(=O)Nc2ccc(Cl)cc2)sc1C1(C)CC(c2cccc([N+](=O)[O-])c2)=NO1 (configuration not stated),0,3.3,-17,-5,3800,15,5
O=C(CSc1nc2ccccc2nc1SCC(=O)N1CCOCC1)N1CCOCC1,0,-13,-5,-14,3214,7,5
O=C(O)c1cc2nc(-c3ccc(F)cc3)cc(C(F)(F)F)n2n1,0,1.3,3,-17,3924,x,x
CC(=O)Nc1ccc(N2CCN(C(C)=O)CC2)cc1,-6,2.6,1,-12,12405,3,5
Cc1cnc(NC(=O)C2CCCC2)s1,-8,2.3,-7,-8,3285,5,9
Cc1ccc(F)c(C2C3C=CCC(c4cccc(-c5ccc(N(C)C)cc5)c4)C3C(=O)N2Cc2ccccc2)c1 (configuration not stated),2,13,4,9,4507,14,9
CCOc1ccc(-c2cccc(NS(=O)(=O)c3cc([N+](=O)[O-])ccc3Cl)c2)nn1,-11,3.0,-2,-15,4573,1,2
COC(=O)c1ccc(C=NNC(=O)c2ccc(C)cc2Cl)cc1,x,7.0,7,x,x,15,13
COC(=O)c1ccccc1NC(=O)CCc1ccccc1,-7,6.5,5,-21,9112,-8,-11
O=C(Cn1nc(C(F)(F)F)cc1C1CC1)NCc1ccccc1F,3,0.9,1,-16,2475,5,3
COc1ccccc1C(CNC(=S)NCc1ccccc1)N1CCCC1 (configuration not stated),2,2.2,-1,-7,4416,1,-13
COC(=O)CCCC1=CC2=C(c3ccccc3)C(=O)C(C)(OC(=O)C3CCCC3)C(=O)C2=CN1Cc1ccc(OC)cc1 (configuration not stated),-3,6.2,2,-12,3660,2,-2
CC1(c2ccc([N+](=O)[O-])cc2)NC(=O)N(CC(=O)Nc2ccc(N3CCCCC3)cc2)C1=O (configuration not stated),-11,-0.4,2,-27,5897,6,5
O=c1[nH]nc(SCc2ccccc2)c(=O)[nH]1,-4,3.8,-11,-7,7069,4,-2
O=C(Nc1ccccc1C(=O)Nc1ccc(F)cc1)c1ccco1,9,13,-7,-15,6715,9,13
COc1cc(C2c3c(n[nH]c3C)C(=O)N2c2ccc(C)cc2)ccc1O (configuration not stated),-14,5.2,0,-14,9173,13,8
O=c1ccc2ccc(O[C@@H]3O[C@H](CO[C@@H]4OC[C@](O)(CO)[C@H]4O)[C@@H](O)[C@H](O)[C@H]3O)cc2o1,x,-14,-5,-32,4241,10,4
# New compounds follow
SMILES,BJeLR lethal,RN4220 kill,Sa ugtP lethal,PrP 5UTR inh,Bead autofluor,Mtb hypoxia rep,Mtb hypoxia rep growth
COc1ccc(N2CCN(S(=O)(=O)c3cn(C)cn3)CC2)cc1,-5,-0.1,-6,-10,5644,5,11
CC(C)c1nc(SCC(=O)NCC2CCCO2)c2c(=O)n(C)c(=O)n(C)c2n1 (configuration not stated),-7,-1.0,-1,-7,5696,-3,1
O=C(N/N=C/c1coc2ccccc2c1=O)c1cc(Br)ccc1O,-17,x,x,-16,5358,x,x
CCN(CC)C(=O)c1cc(C(C)(C)C)c(O)c(C(C)(C)C)c1,1,-1.8,-1,-19,2638,1,0
COc1ccc(-c2cc(C(=O)OC3CCOC3=O)c3ccccc3n2)cc1OC (configuration not stated),-7,1.7,0,3,4721,9,-4
Cc1noc(C)c1CSCC(=O)Nc1cccc(C(F)(F)F)c1,x,-2.1,-5,-13,8824,-11,4
CC(OC(=O)c1cccc(-n2cnnn2)c1)C(=O)NC1(C#N)CCCCC1 (configuration not stated),x,2.4,6,-7,8885,10,3

# Screening data as filed in PubChem BioAssay.
